Beta2AR agonist = activates human beta-2 adrenergic receptor causing internalization | P07550 | Am2.2-beta2AR cells, FAP receptor internalization, flow cytometry; reference of the scale not given here | response, % (no concentration beside the values) | actives 0.43% (n = 340,000);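 active means response above a set limit, near 3 SD of response in nonfluorescent compounds, cut at about 42% in these data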;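 further: stock transfer was 100 nL into about 11 µL; a reference agonist was the positive control; negative values mostly stem from fluorescent compounds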
HNF4A DNA FP = change in binding of human HNF4 alpha to DNA | P41235 | HNF4a-FITC DNA binding, fluorescence polarization, 1 h | actives 0.3% (n = 360,000) | AID 1224865 | activity change, % at 10 µM; in the data active means activity change above about 30%, passing the limit was not always enough;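 further: controls were the assay level and a saturating level of protein; the project sought stronger binding though the title names inhibitors; some compounds called inactive have numbers as strong as hits; positive values seem to mean higher polarization but the record does not say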
Bfl-1 A1 inh = inhibitors of the anti-apoptotic protein A1, read as caspase activation | MEF A1-2A-BIM cells, Caspase-Glo 3/7 luminescence, 3 h; percent of clofoctol response, vehicle zero | caspase activation, % (no concentration beside the values) | actives 0.066% (n = 330,000) | AID 2462;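 active means over half of replicate activation scores above 10%, or exactly half above 10 with the replicate mean above 10; inconclusive means replicate mean below 10 yet half the replicates above 10; inactive means over half of replicates below 10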;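 further: wells of about 30 µL received 50 nL stock; many hits fall short of the cut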
UCH37 inh = human UCH37 deubiquitinating enzyme inhibition. AID 588478. inhibition, % (concentration not given with the values). Q9Y5K5. purified proteasome/UCH37, Ub-AMC cleavage fluorescence. actives 0.33% (n = 330,000);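 active means mean of two replicates above 20%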;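 further: 0% = compound-free wells with enzyme and 100% = wells lacking proteasome; stock transfer was 100 nL into about 20 µL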
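assay system = human UCH37 enzyme supplied as purified proteasome complex | amount = proteasome at 0.15 nM in the dispensed enzyme solution | schedule = 30 min compound-proteasome preincubation then 25 min substrate reaction, room temperature | measured by = fluorescence, ex 355 nm, em 460 nm | benchmarks = no-proteasome wells (full inhibition) and compound-free wells (no inhibition)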
E coli growth = blocks Escherichia coli growth; actives 0.21% (n = 330,000); OD600 absorbance (no concentration beside the values); OD600, 23 h; stronger effect = lower value; AID 1053175;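 active means OD600 absorbance below the run mean of sample wells minus 3.6 SD, in any replicate, cut at about 0.56 in these data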;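 further: stock transfer was 300 nL into about 60 µL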
Vif A3G = HIV-1 Vif–A3G interaction blockers – biochemical, TR-FRET, GST-Vif 1-94, biotin-A3G peptide, dose response retest, primary screen (AID 1117319). inhibition, %; hits with a dose series show IC50 in µM. TR-FRET GST-Vif / biotin-A3G peptide binding; higher % means a stronger effect; test concentration not given here; strong numbers were not always called active. actives 0.57% (n = 260,000);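 active means above the screen mean plus three standard deviations and confirmed in dose response; inconclusive means results disagree or hit not tested in dose response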;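 further: Vif residues 1-94 fused to GST binding biotinylated APOBEC3G peptide 110-148; 0% = full assay without inhibitor and 100% = GST in place of GST-Vif; retest series ran down from 100 µM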
LANA-H2A inh = blocks KSHV LANA binding to histone H2A/H2B. Q9QR71. cell-free LANA-H2A/H2B peptide, fluorescence polarization. inhibition, % (no concentration beside the values). actives 0.6% (n = 320,000); in the data active means inhibition mostly above about 10%, no sharp cut-off; inactive means mostly below about 6.7%;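 further: stock transfer was 7.5 nL into about 10 µL; 0% = median of vehicle wells and 100% = median of positive control wells; one replicate is shown; the record names a cut of 25% in any replicate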
Target sequence (Q9QR71 whole entry, looked up): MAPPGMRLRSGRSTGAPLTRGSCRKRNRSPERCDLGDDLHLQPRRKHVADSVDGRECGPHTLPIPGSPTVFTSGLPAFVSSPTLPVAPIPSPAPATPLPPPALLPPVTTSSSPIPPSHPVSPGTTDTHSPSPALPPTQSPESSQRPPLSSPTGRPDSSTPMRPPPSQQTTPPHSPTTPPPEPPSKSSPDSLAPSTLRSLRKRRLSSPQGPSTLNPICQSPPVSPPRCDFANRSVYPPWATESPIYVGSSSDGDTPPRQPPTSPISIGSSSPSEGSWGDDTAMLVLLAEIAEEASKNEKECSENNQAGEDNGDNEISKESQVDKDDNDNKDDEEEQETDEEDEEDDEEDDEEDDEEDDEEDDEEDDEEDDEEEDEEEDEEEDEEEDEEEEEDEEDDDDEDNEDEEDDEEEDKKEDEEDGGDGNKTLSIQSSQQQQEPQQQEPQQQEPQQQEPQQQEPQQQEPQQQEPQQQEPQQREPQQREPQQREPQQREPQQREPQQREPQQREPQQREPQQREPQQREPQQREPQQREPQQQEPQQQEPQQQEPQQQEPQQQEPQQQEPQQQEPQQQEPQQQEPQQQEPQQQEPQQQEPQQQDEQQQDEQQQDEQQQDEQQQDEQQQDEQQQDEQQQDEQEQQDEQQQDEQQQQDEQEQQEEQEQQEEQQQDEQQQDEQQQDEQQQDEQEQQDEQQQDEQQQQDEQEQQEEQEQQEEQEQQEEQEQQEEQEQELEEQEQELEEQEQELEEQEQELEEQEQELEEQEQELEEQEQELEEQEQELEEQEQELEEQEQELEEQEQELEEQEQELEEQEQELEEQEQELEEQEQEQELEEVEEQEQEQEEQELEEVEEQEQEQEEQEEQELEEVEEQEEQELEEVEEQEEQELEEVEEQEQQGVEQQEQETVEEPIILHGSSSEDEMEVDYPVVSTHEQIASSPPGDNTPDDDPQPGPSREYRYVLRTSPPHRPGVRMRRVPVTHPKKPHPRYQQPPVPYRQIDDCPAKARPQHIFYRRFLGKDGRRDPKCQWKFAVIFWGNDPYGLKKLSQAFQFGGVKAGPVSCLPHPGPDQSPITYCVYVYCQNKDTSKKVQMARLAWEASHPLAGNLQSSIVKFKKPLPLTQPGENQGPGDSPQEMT
Starred values were filed as active, the others as inactive; u = inconclusive; x = not tested or not shown.

SMILES	Beta2AR agonist	HNF4A DNA FP	Bfl-1 A1 inh	UCH37 inh	E coli growth	Vif A3G	LANA-H2A inh
COc1cc2cnc(-c3ccccc3F)cc2cc1OC	11	0.3	-1.8	-0.8	0.69	x	2.0
CCCn1nc(NS(=O)(=O)c2cccc3nonc23)c2cc3cccc(C)c3nc21	12	0.1	-2.5	1.6	0.7	x	-4.8
CSC1=N/C(=C\c2ccc3c(c2)OCO3)C(=O)S1	-1	-2.0	-0.7	3.1	0.74	3%	0.9
CCOc1ccc2c(c1)C(N(CCN1CCOCC1)C(=O)Nc1ccc(OC)cc1OC)CC(C)(C)O2 (stereo unspecified)	-2	-2.1	u	0.7	0.7	4%	4.4
O=[N+]([O-])CC(c1ccccc1)P(=O)(c1ccccc1)c1ccccc1 (stereo unspecified)	-5	9.0	0.0	0.6	0.68	1%	3.6
O=C(NCc1ccccn1)c1ccc(=O)oc1	32	-3.3	0.1	17	0.62	12%	1.0
COC(=O)C(CC(C)C)NC(=O)c1cc(OC)c(OC)c(OC)c1 (stereo unspecified)	18	4.5	-0.5	4.0	0.74	-6%	0.6
CCOC(=O)C(CCCP(=O)(c1ccccc1)c1ccccc1)(NC(C)=O)C(=O)OCC	-7	0.7	-0.8	2.8	0.68	-4%	-1.0
Cn1c(SCc2c(F)cccc2Cl)nc2c(c1=O)SCC2	8	-2.6	0.8	0.8	0.71	0%	2.1
O=S1(=O)CCOC[C@H](Cc2ccccc2)N1Cc1ccccc1Br	-11	2.8	x	-0.1	x	x	x
O=C(CN1CCN(Cc2ccccc2)CC1)c1ccc(Br)cc1	5	0.6	x	2.0	0.67	-4%	x
Cc1ccnc(NS(=O)(=O)c2ccc(NC(=O)CCc3ccccc3)cc2)n1	12	0.1	1.8	2.8	0.62	19%	-2.2
CN(CC(=O)Nc1cccc(F)c1)C(=O)c1cc(-c2cccs2)nn1-c1ccccc1	11	2.3	-1.1	2.0	0.69	-3%	-1.2
COc1ccc(-c2nc3ncccn3c2Nc2ccc3c(c2)OCCO3)cc1	-7	-2.2	x	-0.4	0.62	16%	x
Cc1ccc(OCCSc2ncnc3nc[nH]c23)cc1	0	0.6	0.4	5.0	0.68	2%	2.4
CCC(=O)Nc1c(-c2cccs2)c(=O)c2ccccc2n1C	-4	-2.3	0.7	-4.7	0.69	-3%	1.5
Cc1cccc2cc3c(N)c(C(=O)Nc4ccc(N5CCOCC5)cc4)sc3nc12	20	11	0.0	7.0	0.72	3%	-2.9
Cc1ccc(N2C(=O)N(CC(=O)N3c4ccccc4CC3C)C(=O)C2C)cc1 (stereo unspecified)	0	-1.1	x	0.3	0.7	-15%	x
O=C(Nc1nnc(-c2ccccc2)o1)c1cccc(S(=O)(=O)N2CCOCC2)c1	-1	2.6	1.8	4.7	0.67	-3%	3.6
O=[N+]([O-])c1ccc(COc2cccc(CN3CCOCC3)c2)cc1	-4	0.2	x	x	x	3%	x
CCn1cc(S(=O)(=O)CC(=O)Nc2ccc(OC)cc2)c2ccccc21	17	2.7	0.0	2.2	0.71	67%	0.0
O=C(CN1C(=O)NC2(CCCc3ccccc32)C1=O)NC1CCCCC1 (stereo unspecified)	0	-1.5	0.0	-2.3	0.7	4%	1.1
CCCn1c(N)c(N(CCOC)C(=O)CSCC(=O)Nc2ccc(C)cc2)c(=O)[nH]c1=O	-1	3.1	u	3.9	0.67	-1%	0.0
Cc1ccc(-n2cccc2/C=C2\C(=N)N3N=C(C(C)C)SC3=NC2=O)cc1	1	2.8	1.2	5.5	0.7	u	1.4
COc1ccc(CN2C(=O)c3cccnc3C2=O)cc1S(=O)(=O)NCc1ccco1	-1	3.5	0.3	-0.7	0.72	x	2.2
CCCc1nc2sc3c(c2c(=O)n1NC(=O)c1ccco1)CC(C)(C)OC3	8	-1.7	1.2	2.4	0.71	-3%	5.4
CCN(CC)S(=O)(=O)c1ccc2nnn(OCC(=O)Nc3cccc(C#N)c3)c2c1	-3	-3.3	-0.4	4.1	0.73	21%	5.3
CCOc1ccc2nc(SCC(=O)NCC3CCCO3)sc2c1 (stereo unspecified)	17	2.3	0.8	0.1	0.69	2%	-5.7
CCCN(CCC)CCNC(=O)c1cc2c(=O)n(C)c3ccccc3c2n1C	-1	3.1	-0.9	-8.5	0.7	-2%	-1.4
CCN(CC)CCN(C(=O)c1ccc2c(c1)CCCC2)c1nc2ccc(F)cc2s1	13	2.7	-0.2	6.0	0.67	-2%	0.6
CNc1nc(Cl)nc2c1ncn2-c1ccccc1	-6	-4.7	x	0.0	0.71	-7%	x
COc1cccc(C(=O)CC(=O)C(=O)Nc2cc(Cl)c(OC)cc2OC)c1	0	6.9	-0.1	1.9	0.71	-2%	4.4
O=C(COc1ccccc1)Nc1ccc(C(=O)N2CCCC2)cc1	0	-2.1	-4.6	0.7	0.67	6%	-0.3
O=C(c1cncc(Br)c1)N1CCCc2ccccc21	2	1.1	0.3	3.2	0.73	2%	5.2
CS(=O)(=O)Nc1ccc(C2=NN(C(=O)c3ccccc3)C(c3cccs3)C2)cc1 (stereo unspecified)	8	-5.1	0.4	3.2	0.67	-2%	-0.1
Clc1ccccc1Cc1noc(CN2CCN(Cc3ccccn3)CC2)n1	1	-0.2	0.8	-3.9	0.67	-6%	7.0
CCOC(=O)C1(CCOc2ccccc2)CCN(Cc2cc(OC)c(O)cc2Cl)CC1	20	0.0	0.1	2.8	0.6	x	0.8
OC(CNCC1(N2CCCCC2)CCCCC1)COc1ccc(Cl)cc1Cl (stereo unspecified)	17	-3.5	0.3	1.6	0.66	0%	6.8
O=c1/c(=C/c2cccc3ccccc23)sc2ncnn12	1	1.2	-0.1	x	x	-1%	-3.3
O=C(/C=C/c1ccc(F)cc1)N1CCN(S(=O)(=O)/C=C/c2ccccc2)CC1	9	-2.1	0.7	-1.0	0.67	2%	-1.0
COc1cc(C(=O)NNC(=O)CCOc2ccccc2)cc(OC)c1OC	-5	1.8	0.2	x	x	0%	17*
CN(C)S(=O)(=O)c1cccc(NC(=O)CN2C(=O)NC(Cc3ccccc3)C2=O)c1 (stereo unspecified)	-8	-2.8	-0.4	6.1	0.67	-2%	1.9
CN(C)S(=O)(=O)N1CCC(CO)(CCc2ccccc2)CC1	7	2.7	-0.5	-2.0	0.64	-3%	5.8
Cc1noc(C)c1/C=N/Nc1ccc2ccccc2n1	3	-1.1	-4.4	x	x	-3%	1.7
OC(COc1ccc(OCC(O)CN2CCCCC2)cc1)CN1CCCCC1 (stereo unspecified)	-1	2.6	0.3	2.3	0.65	5%	-43
CCN1CCN(c2cc(C)c3cc(NC(=O)Cc4ccc(OC)c(OC)c4)ccc3n2)CC1	21	0.9	1.0	-51	0.72	3%	-4.0
COc1cc(-c2noc(C)c2C#Cc2nccn2C)cc(OC)c1OC	-2	2.2	-0.2	-0.3	0.66	x	-1.9
CC(C)(c1cc(Cl)c(O)c(CN2CCOCC2)c1)c1cc(Cl)c(O)c(CN2CCOCC2)c1	-16	4.5	x	5.3	0.68	1%	x
COc1ccc2[nH]c(=O)c(CN(C(=O)c3cccnc3)c3ccc(C)c(C)c3)cc2c1	-2	2.0	0.8	-26	0.71	-4%	-4.8
COCCNS(=O)(=O)c1cc(Br)ccc1OC	8	0.9	0.8	-0.5	0.7	1%	4.9
COc1ccc(/C=N/NC(=O)CNC(=O)/C=C/c2ccco2)cc1OC	-2	-1.4	-0.1	x	x	11%	4.9
CC1CN(C(C)C(=O)NC(c2ccccc2)c2ccccc2)CC(C)O1 (stereo unspecified)	8	-4.0	-1.0	6.2	0.68	-8%	-3.2
Cc1ccc(NC2=C(Cl)C(=O)OC2OC(C)C)c(C)c1 (stereo unspecified)	-8	2.2	-2.1	4.7	0.71	10%	-0.2
COc1cc(NC(=O)c2ccc(NC3=NC4CS(=O)(=O)CC4S3)cc2)cc(OC)c1 (stereo unspecified)	3	-3.0	1.6	2.2	0.7	x	-0.1
CCOCC(=O)Nc1ccc(S(=O)(=O)NCC2CCCO2)cc1 (stereo unspecified)	-4	3.0	0.4	2.3	0.71	x	0.5
CCCCNC(=O)c1ccc(CS(=O)(=O)c2ccc(C)cc2)o1	6	-1.5	-0.2	6.7	0.62	9%	9.2
O=[N+]([O-])c1ccc(CSc2ccc(-c3ccccn3)nn2)cc1	1	3.3	-1.0	3.1	0.69	x	-0.6
COc1ccc(C2C3=C(Nc4ncnn42)c2ccccc2CC3)cc1OC (stereo unspecified)	x	x	-1.2	2.4	0.71	u	2.0
COc1cccc(NC(=O)COC(=O)Cc2ccc(Br)cc2)c1	-2	-0.7	0.1	2.5	0.67	-5%	-8.3
CCC(C)NC(=O)COC(=O)c1ccc(Cl)cc1O (stereo unspecified)	-5	2.5	0.0	-3.2	0.62	-15%	-1.4

Full records as entered above. Order of values: Beta2AR agonist | HNF4A DNA FP | Bfl-1 A1 inh | UCH37 inh | E coli growth | Vif A3G | LANA-H2A inh
CSC1=N/C(=C\c2ccc3c(c2)OCO3)C(=O)S1 as listed: -1 | -2.0 | -0.7 | 3.1 | 0.74 | 3% | 0.9
Cc1ccc(OCCSc2ncnc3nc[nH]c23)cc1 as listed: 0 | 0.6 | 0.4 | 5.0 | 0.68 | 2% | 2.4
CC1CN(C(C)C(=O)NC(c2ccccc2)c2ccccc2)CC(C)O1 (stereo unspecified) as listed: 8 | -4.0 | -1.0 | 6.2 | 0.68 | -8% | -3.2
CNc1nc(Cl)nc2c1ncn2-c1ccccc1 as listed: -6 | -4.7 | x | 0.0 | 0.71 | -7% | x
COC(=O)C(CC(C)C)NC(=O)c1cc(OC)c(OC)c(OC)c1 (stereo unspecified) as listed: 18 | 4.5 | -0.5 | 4.0 | 0.74 | -6% | 0.6

Entries listed so far printed as active in LANA-H2A inh.
SMILES,Beta2AR agonist,HNF4A DNA FP,UCH37 inh,E coli growth,Vif A3G,LANA-H2A inh
COc1cc(C(=O)NNC(=O)CCOc2ccccc2)cc(OC)c1OC,-5,1.8,x,x,0%,17*

Later entries:
SMILES	Beta2AR agonist	HNF4A DNA FP	Bfl-1 A1 inh	UCH37 inh	E coli growth	Vif A3G	LANA-H2A inh
Cc1ccc(S(=O)(=O)N(Cc2cc3cccc(C)c3[nH]c2=O)c2ccccc2)cc1	-12	-1.8	-1.6	-3.6	0.76	x	-0.3
O=C(Nc1ccc(C2CCCCC2)cc1)C1CCCN(c2ncccn2)C1 (stereo unspecified)	5	-5.2	0.4	2.6	0.73	-14%	-6.1
Cc1ccc(CN2CC(C(=O)N3CC(C)CC(C)C3)CC2=O)cc1 (stereo unspecified)	-1	0.0	0.8	-1.2	0.67	8%	-1.1
Cc1cs/c(=N\N=C\c2ccc(O)cc2)n1Cc1ccco1	0	1.9	-1.4	x	x	0%	3.5
COc1cc(OC)cc(C(=O)N2CCN(Cc3ccc4c(c3)OCO4)CC2)c1	-4	-3.8	1.1	5.1	0.68	x	-3.4
O=C(N[C@@H](Cc1ccccc1)C(=O)OCc1ccccc1)c1ccco1	25	6.3	-0.4	-2.8	0.7	x	0.7
Cc1ccc(S(=O)(=O)N/N=C/C(C)(C)CO)cc1	-1	3.5	-0.6	x	x	1%	4.6
CN(c1cccc(NC(=O)CSc2ccc(Cl)cc2)c1)S(C)(=O)=O	-5	-3.0	0.3	3.0	0.67	2%	-14
COc1ccc(NC(=O)c2c([N+](=O)[O-])c(C(C)(C)C)nn2C)cc1	-2	2.1	-0.7	-0.5	0.67	1%	-4.4
